CSC inhib – blocks cancer stem cells. hit rate 1.1% among 300,000. inhibition, % at 7.5 µM. cancer stem cell-like cells viability, luminescence. AID 2717;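 active = mean at 75% or more and at least half the replicates too; tested in HMLE shEcad cells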;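 also: 0% = median of negative and 100% = median of positive control wells; the first replicate is given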
Yeast UUG start – modulators of start codon recognition fidelity in yeast; activity score, % at 18.7 µM; S. cerevisiae UUG-firefly luciferase reporter, luminescence/redox ratio; hit rate 0.13% among 350,000; AID 602363;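 active = replicate mean at a twofold rise or more, about +100% in these data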;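 also: firefly luciferase made from a UUG start codon reports start codon fidelity; reporter light over untreated wells divided by growth signal over untreated wells; some hits fall short of that in this replicate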
PABP FP inh – PABP-poly(A) binding inhibition | hit rate 1% among 290,000 | PABP-poly(A) RNA binding, fluorescence polarization | P11940 | inhibition, % at 35 µM;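 active = 50% or more with normal probe brightness, or confirmed in later tests; about a fifth of its hits are not listed in these tables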;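 also: calls also rest on retests at 20 µM and on dose response follow-up; controls were probe without protein and protein plus probe with vehicle; some compounds called inactive have numbers as strong as hits; many hits fall short of the cut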
Env fusion inh – blocks HIV Env-driven cell-cell fusion; inhibition, % at 12.3 µM; HeLa-JRFL Env/CEM21 cell fusion, luciferase; hit rate 1.1% among 360,000;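 active = mean replicate inhibition score of at least 50 and every replicate individually at or above 50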;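 also: 0% = plate neutral controls and 100% = maraviroc near 300 nM; one replicate is shown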
Rce1 inhib – yeast Ras-converting enzyme inhibition | calls only | AID 2563 | yeast membranes, quenched prenylated peptide cleavage fluorescence | hit rate 0.27% among 290,000 | Q03530;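 active = fall in fluorescence gain of 50% or more versus controls, with final raw signal at or below 3038400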;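 also: plate controls were neutral control wells for no effect and wells lacking membranes for full effect; tested at 10 µM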
Target sequence (Q03530 whole entry, looked up): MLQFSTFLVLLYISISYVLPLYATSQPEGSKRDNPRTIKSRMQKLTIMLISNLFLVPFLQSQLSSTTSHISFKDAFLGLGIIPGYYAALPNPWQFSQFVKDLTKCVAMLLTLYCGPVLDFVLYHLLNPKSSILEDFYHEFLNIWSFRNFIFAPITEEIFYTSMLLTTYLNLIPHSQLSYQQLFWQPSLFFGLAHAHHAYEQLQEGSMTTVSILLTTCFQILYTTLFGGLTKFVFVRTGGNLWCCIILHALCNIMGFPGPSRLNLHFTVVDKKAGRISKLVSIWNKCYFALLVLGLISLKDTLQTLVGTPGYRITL
eIF4H FP inh – inhibitors of RNA binding by human eIF4H; Q15056; eIF4H fluorescence polarization binding assay; inhibition, % at 35 µM; hit rate 0.94% among 290,000; AID 2012;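 active = 50% or more with normal probe brightness, or confirmed in later tests; about a fifth of its hits are not listed in these tables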;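 also: calls also rest on retests at 20 µM and on dose response follow-up; 0% = protein and probe with vehicle and 100% = probe without protein; strong numbers were not always called active; many hits fall short of the cut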
MT1-MMP act inh – inhibitors of human MT1-MMP activation; P50281; HT1080 RFP-PRO-GFP cells, GFP/RFP ratio fluorescence, overnight; percent of plate control window, DMSO zero; GFP/RFP ratio change, % at 20 µM; hit rate 0.061% among 360,000; AID 651647;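 active = GFP/RFP ratio change of at least 30% with cell ATP level not reduced by more than half and red fluorescence within 50% of control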; also: strong numbers were not always called active
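Read-out: GFP/RFP fluorescence ratio; Test system: RFP-PRO-GFP reporter HT1080 cells; Compound dosing: single-point 20 µM compound, 1% DMSO; Times: overnight compound exposure at 37 °C.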
eIF4H FP inh retest – recorded beside eIF4H FP inh, whose call it bears; inhibition, %; compound at 20 µM; confirmation average;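 mean of two retest wells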
PABP FP inh retest – also measured in PABP FP inh; calls as there; inhibition, %; compound at 20 µM; confirmation repeats;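 mean of two retest wells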
MT1-MMP act inh RFP – further read-out of MT1-MMP act inh, marked with its call; RFP signal change, %; measured here: RFP expression control read;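 0 = vehicle wells; hits needed this value within 50% of zero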
* marks the source's active call; other numbers are inactive results; i = inactive; . = not tested or not shown; + = active, no number.

SMILES	CSC inhib	Yeast UUG start	PABP FP inh	Env fusion inh	Rce1 inhib	eIF4H FP inh	MT1-MMP act inh	MT1-MMP act inh RFP	others
Cc1nonc1CN(C)C(=O)CC1C(=O)NCCN1Cc1ccccc1F (stereo not given)	-14	-10	4	.	i	-1	-2	1
Cc1ccc(CN(CC(=O)N/N=C/c2ccccc2[N+](=O)[O-])S(=O)(=O)c2ccc(C)cc2)cc1	-3	-16	10	.	i	3	-9	-10
CN1/C(=C\C=C2\N=C(c3ccc(F)cc3)OC2=O)C(C)(C)c2ccccc21	4	-9	120*	.	i	128*	12	28	eIF4H FP inh retest=97*;PABP FP inh retest=105*
COc1ccc(OC)c(S(=O)(=O)Nc2ccc3[nH]c(=O)[nH]c3c2)c1	6	-7	-13	-12	i	-2	1	3
Cc1cccc(C)c1NC(=O)CNC(=O)C12CC3CC(CC(O)(C3)C1)C2	-5	.	.	0	i	.	4	1
COc1cccc(C(=O)Nc2c3c(nn2-c2ccc(Cl)cc2)CS(=O)(=O)C3)c1OC	-17	-12	-8	8	i	-11	2	3
COc1ccc(OC)c(NC(=O)Nc2c(O)ccc3ccccc23)c1	11	-6	.	13	i	.	5	4
CCS(=O)(=O)Nc1cccc(-c2nc3cccnc3s2)c1	2	.	-2	-13	i	7	-3	-2
CCn1c2ccc(F)cc2c2nnc(SCCN3CCCCC3)nc21	8	-7	-1	-12	i	-3	-2	0
Cc1cc(C)nc(SCC(=O)N/N=C/c2cccnc2)n1	-5	-19	-5	25	i	-2	-3	1
O=C(O)CCCn1cc(NC(=O)c2c(F)cccc2F)cn1	-16	.	-8	9	i	-11	-2	-1
Cc1c(N=C2SCC(=O)N2/N=C\c2ccc(Br)cc2)c(=O)n(-c2ccccc2)n1C	6	-6	-9	14	i	4	0	-2
CCCCC(=O)Nc1cc(C)c2c(=O)oc3ccccc3c2n1	8	-1	0	.	i	-3	-5	-7
CC(=O)Nc1ccc(C(=O)OCC(=O)Nc2ccccc2Sc2ccccc2)cc1	.	4	40	0	i	0	-1	1
CC1(C)CC(=O)C(C=NC(CCC(N)=O)C(=O)O)=C(O)C1 (stereo not given)	-1	-6	6	.	i	6	-4	1
CCOc1ccc(CCNC(=O)C2CCN(c3nnc(-n4cccc4)s3)CC2)cc1	9	-15	0	12	i	4	6	1
CC(=O)NC1(c2nnnn2CCOC(=O)Nc2ccc(Cl)cc2)CCCC1	-9	.	-6	6	i	-1	1	2
CN1CCN(c2ncc(CN3C(=O)c4ccccc4C3=O)s2)CC1	-10	-6	4	-6	i	-4	-4	-1
Cc1cc(C)c2c(CN3CCN(Cc4ccccc4)CC3)cc(=O)oc2c1	29	1	-4	13	i	-17	3	4
O=S(=O)(c1ccc(NC(=S)NC2CC2)cc1)N1CCOCC1	.	.	3	3	i	11	3	-1
O=C(Cn1c(=O)n(Cc2ccco2)c(=O)c2cc(Cl)ccc21)NCC1CCCO1 (stereo not given)	-13	12	-3	.	i	-5	9	5
Cc1cc(C)cc(NC(=O)c2ccc(NC(=O)c3ccco3)cc2)c1	4	-17	2	7	i	7	5	-6
O=c1c2c3nc4ccccc4nc3n(/N=C/c3ccccn3)c2ncn1-c1ccccc1	35	-20	0	-11	i	-7	0	-7
O=C(Nc1ccc(-c2nc3ccccc3o2)c(O)c1)c1cc(-n2cnnc2)ccc1Cl	11	-3	-14	3	.	-10	-6	-15
CCOc1ccc(CCNC(=O)COC(=O)c2nc3nc(C)cc(C)n3n2)cc1OCC	6	-11	-10	5	i	-3	7	6

Arranged by count of non-hydrogen atoms (ascending): some entries from above.
SMILES	CSC inhib	Yeast UUG start	PABP FP inh	Env fusion inh	Rce1 inhib	eIF4H FP inh	MT1-MMP act inh	MT1-MMP act inh RFP	others
CC1(C)CC(=O)C(C=NC(CCC(N)=O)C(=O)O)=C(O)C1 (stereo not given)	-1	-6	6	.	i	6	-4	1
O=S(=O)(c1ccc(NC(=S)NC2CC2)cc1)N1CCOCC1	.	.	3	3	i	11	3	-1
CCCCC(=O)Nc1cc(C)c2c(=O)oc3ccccc3c2n1	8	-1	0	.	i	-3	-5	-7
COc1ccc(OC)c(S(=O)(=O)Nc2ccc3[nH]c(=O)[nH]c3c2)c1	6	-7	-13	-12	i	-2	1	3
Cc1cc(C)cc(NC(=O)c2ccc(NC(=O)c3ccco3)cc2)c1	4	-17	2	7	i	7	5	-6
Cc1cccc(C)c1NC(=O)CNC(=O)C12CC3CC(CC(O)(C3)C1)C2	-5	.	.	0	i	.	4	1
Cc1nonc1CN(C)C(=O)CC1C(=O)NCCN1Cc1ccccc1F (stereo not given)	-14	-10	4	.	i	-1	-2	1
O=C(Cn1c(=O)n(Cc2ccco2)c(=O)c2cc(Cl)ccc21)NCC1CCCO1 (stereo not given)	-13	12	-3	.	i	-5	9	5
CC(=O)Nc1ccc(C(=O)OCC(=O)Nc2ccccc2Sc2ccccc2)cc1	.	4	40	0	i	0	-1	1
O=C(Nc1ccc(-c2nc3ccccc3o2)c(O)c1)c1cc(-n2cnnc2)ccc1Cl	11	-3	-14	3	.	-10	-6	-15
CCOc1ccc(CCNC(=O)COC(=O)c2nc3nc(C)cc(C)n3n2)cc1OCC	6	-11	-10	5	i	-3	7	6
Cc1ccc(CN(CC(=O)N/N=C/c2ccccc2[N+](=O)[O-])S(=O)(=O)c2ccc(C)cc2)cc1	-3	-16	10	.	i	3	-9	-10

Returning to the listing, starting 2 compounds before the break.
SMILES	CSC inhib	Yeast UUG start	PABP FP inh	Env fusion inh	Rce1 inhib	eIF4H FP inh	MT1-MMP act inh	MT1-MMP act inh RFP	others
O=C(Nc1ccc(-c2nc3ccccc3o2)c(O)c1)c1cc(-n2cnnc2)ccc1Cl	11	-3	-14	3	.	-10	-6	-15
CCOc1ccc(CCNC(=O)COC(=O)c2nc3nc(C)cc(C)n3n2)cc1OCC	6	-11	-10	5	i	-3	7	6
CC(C)(C#N)C(C)(C)c1nn[nH]n1	0	-15	16	.	i	0	4	7
CCCC(c1nnnn1C(C)(C)C)N1CCN(c2ccccc2)CC1 (stereo not given)	-18	1	3	15	i	1	1	2
CCOc1ccc(CCNC(=O)CS(=O)Cc2nc(-c3ccc(C)cc3)oc2C)cc1 (stereo not given)	-7	-26	-7	14	i	-8	2	-1
N#CC1=C(N)Oc2cc(N)ccc2C1C1CCCCC1 (stereo not given)	60	-7	6	20	i	5	-11	-3
CCOC(=O)C(C)n1nc(-c2ccccc2)c2ccccc2c1=O (stereo not given)	.	3	4	-4	i	-2	-1	2
O=C(NC1CC1)c1ccc2c(c1)N(Cc1ccccc1)CCS2	13	11	-6	-8	+	-6	-3	-6
O=C(Nc1cc(C(F)(F)F)ccc1-n1cncn1)c1ccc(Cl)cc1	0	-16	0	26	i	-7	2	0
Cc1ccc(NC(=O)CCN2CCC(C)CC2)cc1	-17	-16	8	-4	i	3	-1	1

Compound activity deposited in PubChem BioAssay by several laboratories.

Only part of the results is shown; count on the stated rates, not on these rows.
